HPGD block = HPGD (human) dehydrogenase inhibition; P15428; purified HPGD, NADH fluorescence kinetic, PGE2 substrate; Potency, µM, for inactives: top-dose activity change, negative = inhibition, actives largely listed as inhibitors; 150,000 tested, 4.3% active; AID 894; active = well fitted inhibition curve with a large enough effect (not every such curve was filed as active); inconclusive = small, poorly fitted or top-dose-only effect, or another doubt; inactive = no such curve, though single readings can be large or run the other way;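 note: top concentration of the series not given in the record; plate controls included wells without enzyme; inactives centre near -10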
Target sequence (P15428 whole entry, looked up): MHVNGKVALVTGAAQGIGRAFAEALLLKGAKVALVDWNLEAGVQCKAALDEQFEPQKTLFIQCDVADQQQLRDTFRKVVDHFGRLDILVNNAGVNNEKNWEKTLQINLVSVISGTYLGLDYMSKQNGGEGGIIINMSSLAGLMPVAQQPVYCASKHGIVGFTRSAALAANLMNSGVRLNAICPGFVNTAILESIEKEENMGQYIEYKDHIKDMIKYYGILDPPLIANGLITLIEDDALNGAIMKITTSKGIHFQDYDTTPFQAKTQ
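NADH formation kinetics: reaction with 30 uM PGE2 and 1 mM NAD+ (final), 20 nM enzyme, Tris-HCl pH 8 with Tween 20, after 15 min compound preincubation at room temperature. Fluorescence change, last versus first of five reads.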
* hit, by the source's call; ? = inconclusive; & = joins results of further samples. % is set by controls: 0 for no effect and ±100 for the full control effect; potency is the fitted concentration of half-maximal effect.

HPGD block	SMILES
-6%	Cc1ccc(/C=C2\SC(=S)N(CCC(=O)NNC(=O)c3cccnc3)C2=O)cc1
-3%	Cc1ccc(SCc2[nH]nc3c2C(C(C)C)C(C#N)=C(N)O3)cc1 (stereo not given)
-19%	COc1ccnc(Oc2ccccc2)c1C(=O)N/C=N/OCc1ccc(F)cc1Cl
-10%	CCN1CN(Cc2ccccc2)CNC1=S
-8%	Cc1ccc(S(=O)(=O)N2CCC(C(=O)N[C@@H](Cc3ccccc3)C(=O)O)CC2)cc1
-14%	Cc1cc(NC(=O)CSc2cc(Cl)ccc2Cl)n(-c2ccccc2)n1
-10%	COc1ccc(/C=C2/N=C3CCCCCN3C2=O)cc1OC
-3%	CCNC(=S)N/N=C/c1cc(C)ccc1C
?	Cc1ccc(S(=O)(=O)c2c(N)n(Cc3ccco3)c3nc4ccccc4nc23)cc1C
-2%	Cc1ccc(S(=O)(=O)c2nc(C)oc2NCc2ccccc2)cc1
-3%&-19%	CC(/C=C\c1cccnc1)=C/C(=O)O
20µM*	C=CCn1c(SCC(=O)c2cccs2)nnc1-c1cccc(OC)c1
-11%	Cc1ccnc(NC(=O)CS(=O)(=O)Cc2ccccc2)c1
-3%	C=CC[C@](C)(Nc1ccc(OC)cc1)C(=O)OCC
-19%	COc1ccc(NC(=O)CN(C)C2CCCCC2)c([N+](=O)[O-])c1

In a second layout: results already given.
SMILES: CC(/C=C\c1cccnc1)=C/C(=O)O
  HPGD block: -3%&-19%

SMILES: C=CCn1c(SCC(=O)c2cccs2)nnc1-c1cccc(OC)c1
  HPGD block: 20µM*

SMILES: Cc1ccnc(NC(=O)CS(=O)(=O)Cc2ccccc2)c1
  HPGD block: -11%

(continued)
HPGD block	SMILES
?	CN(C)S(=O)(=O)c1ccc(N2CCCC2)c(C(=O)Nc2nc3ccc(F)cc3s2)c1
-4%	CCOC(=O)C1CCN(C(=O)CSc2nnc(-c3ccco3)n2-c2ccccc2)CC1
25µM*	O=C(COc1ccccc1Br)NCc1ccco1
-21%	O=C(Nc1cnccn1)c1csc2ccccc12
-2%	O=C(OCC(=O)c1ccc[nH]1)c1ccc(S(=O)(=O)N2CCCCC2)cc1
-16%	Cc1nnc(SCC(=O)c2cc(C)n(C3CC3)c2C)s1
-24%	Cc1ccc(NC(=O)C(c2ccc(Cl)cc2)N2CCCCC2)cc1 (stereo not given)
2µM*	CCCCN(CC)C(=O)c1ccc(-c2ccccc2)cc1
-3%	COc1cccc(NC(=O)Cc2nnc(SCC(=O)NC(C)c3ccccc3)n2C)c1 (stereo not given)
?	O=C(Nc1ncc2c(n1)-c1ccccc1OC2)c1ccccc1Cl
-8%	O=C(NCCc1c[nH]c2ccccc12)c1ccc([N+](=O)[O-])cc1
-20%	CC(NC(=O)/C(C#N)=C1\N=C(NC(=O)c2cccs2)c2ccccc21)c1ccccc1 (stereo not given)
32µM*	O=C(Cc1ccccc1)NCCSCc1ccc(Cl)cc1
-6%	O=C(Nn1cnnc1)c1ccc(F)c(S(=O)(=O)N2CCCCC2)c1
-15%	CCOc1cc(/C=N\NC(=O)c2ccc(NC(=O)C(C)(C)C)cc2)ccc1OC(=O)c1ccc(OC)cc1

(further entries)
HPGD block	SMILES
-7%	CC(=O)C(CC(=O)N1CCCc2ccccc21)C(=O)Nc1ccc(F)cc1 (stereo not given)
-21%	CC1Nc2ccccc2C(=O)N1NS(=O)(=O)c1ccccc1 (stereo not given)
-3%	C=C1CC[C@@H]2O[C@@]2(C)CC[C@H]2[C@H]1CC2(C)C
13µM*	CCOC(=O)c1ccc(N2NC(=O)/C(=C/c3ccc(OC(=O)c4ccco4)c(OC)c3)C2=O)cc1
-6%	COc1nc(Oc2ccc(/C=N/O)cc2)nc(N(C)C)n1
3%	C[C@@H](O)C#C[Si](C)(C)c1ccccc1
-14%	Clc1ccc(N/N=C/c2ccncc2)cc1Cl
-11%	O=C(N/N=C/C=C/c1ccccc1)c1ccc(Br)cc1
-18%	CCOC(=O)c1cccc(Nc2ncnc3ccccc23)c1
-7%	CN(C(=O)c1cc(-n2cnnc2)ccc1Cl)c1ccccc1
-6%	CCCC(=O)Nc1nc2c(c(=O)[nH]1)CCCC2
-6%	O=C(/C=C/c1ccc2ccccc2c1)c1ccoc1
-11%	Cc1ccc(SCc2cc(=O)[nH]c(N3CCN(C)CC3)n2)cc1
-11%	CC1CN(S(=O)(=O)c2ccc(-c3nc4ccccc4s3)cc2)CC(C)O1 (stereo not given)
-6%	O=C(Nn1c(-c2ccccc2)nc2ccccc2c1=O)C1CCC1

In another format: 4 of the compounds above.
CC(=O)C(CC(=O)N1CCCc2ccccc21)C(=O)Nc1ccc(F)cc1 (stereo not given)
  HPGD block: -7%

CCOC(=O)c1ccc(N2NC(=O)/C(=C/c3ccc(OC(=O)c4ccco4)c(OC)c3)C2=O)cc1
  HPGD block: 13µM*

O=C(N/N=C/C=C/c1ccccc1)c1ccc(Br)cc1
  HPGD block: -11%

O=C(/C=C/c1ccc2ccccc2c1)c1ccoc1
  HPGD block: -6%

Further structures follow.
HPGD block	SMILES
-7%	COc1ccc(CCNC(=O)C2CC(=O)N(c3ccc(F)cc3)C2)cc1OC (stereo not given)
-8%	c1csc(CNCCCN2CCOCC2)c1
16µM*	On1c2c(c3c4nonc4ccc31)CCCC2
-20%	Clc1cccc(Cl)c1Cn1cnc2c(NCc3ccco3)ncnc21
-8%	COc1ccc(NC(=O)NCc2cccn2C)c(OC)c1
-5%	CCC(=O)Nc1cc(-c2nn(CC(=O)N3CCCCC3)c(=O)c3ccccc23)ccc1N1CCOCC1
-9%	N/C(=N/O)c1nc(N2CCCC2)nc(N(c2ccccc2)c2ccccc2)n1
-22%	NC(=S)N=Nc1c(O)[nH]c2ccccc12
?	O=C1c2ccccc2NC(c2ccccc2Cl)N1N=C1CCCCCC1 (stereo not given)
0%	C=CCOc1ccccc1CN1CCSCC1
-3%	C[n+]1cc(-c2ccccc2)n2c1CCCCC2
5%	CCCC(=O)Nc1cc(Cl)ccc1N1CCN(C(=O)CC)CC1
?	CC(Oc1ccc2oc(-c3ccccc3)c(C(=O)O)c2c1)C(=O)O (stereo not given)
?	Cc1cccn2cc(CNC(=O)C3CCCCC3)nc12
?	Cc1ccc(/C=C2\SC(=S)N(CCC(=O)NNS(=O)(=O)c3ccc(C)cc3)C2=O)cc1

The list goes on.
HPGD block	SMILES
13µM*	CCOc1ccc(OCC(=O)c2c(O)c3ccccc3oc2=O)cc1
-2%	CC(C)N1C(=O)CCC1C(=O)N1CCCc2ccccc21 (stereo not given)
-7%&1%&-10%&-1%&-13%&-10%	CN=C(NC#N)NCCSCc1nc[nH]c1C
-19%	COCCn1c(-c2ccccc2)nc(=S)c2c1CC(C)(C)OC2
-5%	O=C(COC(=O)c1ccccn1)c1ccc(Br)cc1
-15%	O=C(Nc1ccc(F)cc1)C(c1ccccc1)N1CCN(S(=O)(=O)c2ccc3ccccc3c2)CC1 (stereo not given)
-4%	COc1ccc(N=C2SC(C(=O)Nc3ccc4c(c3)OCO4)CC(=O)N2C)cc1 (stereo not given)
-14%	COc1ccc(-c2noc(-c3cc(C)cc(C)c3)n2)cc1OC
-17%	O=C(CCN1C(=O)C2C3CCC(C3)C2C1=O)OCC(=O)c1cccc([N+](=O)[O-])c1 (stereo not given)
-3%	Cc1ccc(C)c(NS(=O)(=O)c2ccc(NC(=O)CSc3ccc(Cl)cc3)cc2)c1
-9%	Cc1ccc(NC(=O)C2C3CCCC2C3c2ccccc2)cc1C (stereo not given)
-5%	O=C(CCN1CCN(c2ccccc2)CC1)Nc1ccccc1F
-6%	CO[C@@H]1c2cc(F)ccc2/C(=C\CCOC(=O)C/C=C/c2ccccc2)[C@H]1C
-11%	CCCn1c(SCc2nc3sc(C)c(C)c3c(=O)[nH]2)nc2ccccc2c1=O
-6%	O=C(NCCN1CCN(c2cccc(Cl)c2)CC1)C1CCCN(S(=O)(=O)c2cnc[nH]2)C1 (stereo not given)

3 of the entries above in order of the HPGD block value, low to high.
HPGD block	SMILES
-9%	Cc1ccc(NC(=O)C2C3CCCC2C3c2ccccc2)cc1C (stereo not given)
-6%	O=C(NCCN1CCN(c2cccc(Cl)c2)CC1)C1CCCN(S(=O)(=O)c2cnc[nH]2)C1 (stereo not given)
-2%	CC(C)N1C(=O)CCC1C(=O)N1CCCc2ccccc21 (stereo not given)

(cont.)
HPGD block	SMILES
-7%	CC(=O)c1cccc(NC(=O)c2ccc(S(=O)(=O)N3CCCCC3)cc2)c1
-19%	CC(C)(C)c1cn(-c2ccccc2)c(=S)[nH]1
-3%	Brc1ccc(C2=Nn3c(nnc3-c3n[nH]c4c3CCC4)SC2)cc1
1%	COC(=O)C1=C(C(=O)OC)[C@@H]2N(C)c3ccccc3[C@@]23C[C@@H](C(=O)OC)N(S(=O)(=O)c2ccc(C#N)cc2)C3=N1
1%	COc1ccc(/C(O)=C2/C(=O)C(=O)N(Cc3cccnc3)C2c2ccccn2)cc1 (stereo not given)
-16%	Cc1cc([N+](=O)[O-])ccc1-c1ccc(/C=N/NC(=O)Cc2ccccc2)o1
5%	CCCS(=O)(=O)N1CCCC(C(=O)NCCCN(CC)c2cccc(C)c2)C1 (stereo not given)
-8%	Cc1cc(NC(=O)C23CCC(C)(C(=O)O2)C3(C)C)no1 (stereo not given)
-11%	COc1ccc(C2C(C(=O)OCC(=O)NC(C)(C)C)CCC(=O)N2c2ccc(C)cc2)cc1OC (stereo not given)
?	O=C(COC(=O)c1c2c(nc3ccccc13)CCCC2)c1cccs1
-11%	Fc1ccc(-c2nc3c(Cl)cc(C(F)(F)F)cn3c2Cl)cc1
-24%	C=CCn1c(-c2ccccc2)n[nH]c1=S
-6%	O=C(Nc1ccccc1F)c1ccc(CNS(=O)(=O)c2cccc(C(F)(F)F)c2)cc1
-10%	Cc1cc(C)c(NC(=O)CN2C(=O)NC3(CCOc4ccccc43)C2=O)c(C)c1 (stereo not given)
-11%	CCCc1nn(C)c2c1C(c1ccncc1)C(C#N)=C(N)O2 (stereo not given)

(listing goes on)
HPGD block	SMILES
-1%	O=C(Nc1ccc(CN2CCCCC2)cc1)c1ccc(Br)o1
-3%	CC(C)CC(=O)N1CCC(N2CCN(c3ccccc3)CC2)CC1
-14%	O=C(c1ccccc1)c1c[nH]c2cc3c(cc2c1=O)OCO3
-13%	CC(=O)c1nc(N2C(=O)CC(Cc3ccc(C)cc3)C2=O)sc1C (stereo not given)
16%	CCCCc1nc(NCc2ccccc2)c(C#N)c2c1COC(C)(C)C2
-9%	COc1ccc(-c2n[nH]c(C)c2-c2ccc(Cl)cc2)c(O)c1OC
-2%	COC(=O)C1=C(C(=O)OC)[C@@H]2N(C)c3ccccc3[C@@]23C[C@@H](C(=O)OC)N(S(=O)(=O)c2ccc(C(F)(F)F)cc2)C3=N1
-19%	CSc1cccc(NC(=O)CCCOc2ccc(Cl)cc2Cl)c1
-11%	Cc1ccc(CNC(=O)c2cnc(-c3ccccn3)nc2C(F)(F)F)cc1
-12%	CC(C)(C)c1cc[n+](/C(C(=S)NC2CC2)=C(/[O-])c2ccc(Cl)s2)cc1
-21%	Cc1ccc(C)c(N2CCN(C(=O)CCCCn3c(=O)[nH]c4ccccc4c3=O)CC2)c1
?	CC1CN(S(=O)(=O)c2cccc(-c3cn4cccnc4n3)c2)CC(C)O1 (stereo not given)
?	Cc1ccc(NC(=O)Cn2nnc(-c3ccccc3NC(=O)c3cccs3)n2)cc1
-7%	COc1ccc(N2CCN(CCNC(=O)C3CC(=O)N(C4CCCC4)C3)CC2)cc1 (stereo not given)
0%	N#CNC1=NCN(CCc2ccccc2)CN1

The results go on:
HPGD block	SMILES
-1%	CCOc1cccc(N)c1
?	CCOC(=O)c1c(C)nc2sc(C(=O)Nc3ccccc3)c(N)c2c1-c1ccc(OC)cc1
-15%	N#C/C(C(=O)N1CCOCC1)=c1\s/c(=C/c2ccncc2)c(=O)n1-c1ccccc1
?	CCOC(=O)c1sc2nc3c(cc2c1N)COC(C(C)C)C3 (stereo not given)
-14%	O=S(=O)(NCc1ccc(Cl)cc1)c1cnc[nH]1
-18%	Cc1nc(N2CCN(Cc3ccccc3)CC2)nc2c1C(=O)CC(c1ccco1)C2 (stereo not given)
-8%	COc1ccc(N2CC(C(=O)Nc3ccc(S(=O)(=O)Nc4nc(C)cc(C)n4)cc3)CC2=O)cc1 (stereo not given)
-13%	COc1ccc(OCCSc2nnc(CCNC(=O)c3ccc(Cl)c(Cl)c3)n2C)cc1
-13%	COc1ccc(C(=O)N/C(=C/c2cccs2)c2nc3ccccc3[nH]2)cc1OC
?	COCCNC(=O)c1cc2c(=O)n3cccc(C)c3nc2n1C
-3%	O=C1CN(C(=O)c2cc3ccccc3oc2=O)C(c2ccccc2)c2cc(F)ccc2N1 (stereo not given)
-8%	COc1ccc(CNC(=O)c2cccc(N(C)C)c2)cc1
-10%	CCc1ccccc1NC(=O)CSc1nnc([C@@H](NC(=O)OC(C)(C)C)C(C)CC)o1 (stereo not given in full)
-3%	O=S1(=O)CCN(Cc2cccc(Cl)c2)CC1
?	COc1ccc(-c2cc(C(=O)N(C)Cc3ccccc3)no2)cc1OC

The list continues.
HPGD block	SMILES
5%	CCCCN1CCC(n2c(=O)[nH]c3ccccc32)CC1
-30%	CCOc1ccc(N2C(=O)/C(=C/c3cc(OC)c(OC)c(OC)c3)N(CC(=O)OC)C2=S)cc1
-19%	Cc1cccc(OCCCOc2cccc3cccnc23)c1C
-5%	O=c1nc2n(c3ncccc13)CCC2
-6%	ON(CCc1ccncc1)Cc1ccccc1
-15%	Cc1cc(C(=O)Nc2sc3c(c2C#N)CCC(C)C3)cs1 (stereo not given)

High-throughput results deposited in PubChem BioAssay by National Center for Advancing Translational Sciences (NCATS).

An excerpt. The share of hits here may be higher or lower than overall.
